Screens: PubChem BioAssay, National Center for Advancing Translational Sciences (NCATS)
CtBP-E1A inh – qHTS Assay for Inhibitors of the CtBP/E1A Interaction. AlphaScreen GST-E1A/His-CtBP binding, 1536-well; hits give low values; control for the full effect not named in the record. activity change, % (concentration not given with the values). 340,000 tested, 0.49% active; in the data active means activity change below about -65%; inconclusive means about -30% to -65%; inactive means above about -30%; note: % is set by controls: 0 for no effect and ±100 for the full control effect
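Steps: dispense buffer (Tris pH 8.0, NaCl 300 mM, TCEP 1 mM, BSA, Tween 20); add 5X protein mix (GST-E1A, His-CtBP, 125 nM each); pin 23 nL compound; 2 h at 37 °C, dark; add 5X beads (50 ug/mL); 1 h; read.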
D2 agonist – Beta-Arrestin HTS for Positive Allosteric Modulators of the Human D2 Dopamine Receptor: Agonists. D(2) dopamine receptor (Homo sapiens), P14416. DiscoveRx PathHunter D2 beta-arrestin, luminescence, 90 min; 100% = 57 uM dopamine signal. activation, % (no concentration beside the values). 360,000 tested, 0.084% active. AID 624465, 2012; in the data active = activation above about 40%; inconclusive = about 15% to 40%; inactive = below about 15%; note: compound concentration not given in the record; the text of the record calls up to 30% inactive
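DiscoveRx PathHunter D2 beta-arrestin cells (2,100/well) attached overnight, then compound-stimulated 90 min at 37 C in HBSS/10 mM HEPES/0.1% Tween-20 buffer; beta-galactosidase complementation read by luminescence after 1 h at ambient temperature. Dopamine 57 uM final (EC100) as control.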
TRPML1 agonist – qHTS for Agonists of the Human Mucolipin Transient Receptor Potential 1 (TRPML1). Mucolipin-1 (Homo sapiens), Q9GZU1. TRPML1-expressing cells, Ca2+ dye fluorescence, FDSS; host cell line not named in the record; reference of the full effect not given here. activation, % (no concentration beside the values). 410,000 tested, 0.12% active. AID 624414, 2012; in the data active = activation above about 50%; inconclusive = about 30% to 50%; inactive = below about 30%; note: 0% is about no effect; the text of the record puts the active cut at 80%
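Cells: TRPML1-DL, 1X Tet inducer, ~16 h at 37 degrees C/5% CO2. Dye: ABD Ca8 no-wash + quencher, 45-90 min RT. Read: 10 s baseline, compound add, 110 s agonist phase; 54-4 EC80 (4uM final), 110 s antagonist phase.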
PINK1 modulator – A Quantitative High throughput Screen to Identify Chemical Modulators of PINK1 Expression; PINK1 immunofluorescence, high-content cytometry, 24 h; Potency, µM (highest dose often 76.6 µM), without a hit: at the top dose activation (PINK1 increase), actives largely listed as activators; 410,000 tested, 0.2% active; active = well fitted activation curve with a large enough effect; inconclusive = small, poorly fitted or top-dose-only effect; inactive = flat fitted curve, though single readings scatter; cell line not stated here;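 note: potency is the fitted concentration of half-maximal effect; % of control where 0% means no effect; nearly all actives have a fitted effect of over 65% in size; a mitochondrial uncoupler was the plate control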
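PINK1 protein, normally rapidly degraded, was detected by immunofluorescence after 24 hour compound treatment of a stable cell line. Titration data (5 concentrations) came from laser-scanning cytometry, with CCCP-treated wells as controls.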
Six1-Eya2 blk – qHTS Assay for Inhibitors of the Six1/Eya2 Interaction; activity change, % (test concentration not listed); 360,000 tested, 0.56% active; AID 651725, 2012; AlphaScreen GST-Six1/His-Eya2 binding, biochemical; hits give low values; control for the full effect not named in the record; Homeobox protein SIX1 (Homo sapiens) + Protein phosphatase EYA2 (Homo sapiens), …; in the data active = activity change below about -65%; inconclusive = about -30% to -65%; inactive = above about -30%; note: % is set by controls: 0 for no effect and ±100 for the full control effect; compound concentration not given in the record
Target sequence (O00167 whole entry, looked up): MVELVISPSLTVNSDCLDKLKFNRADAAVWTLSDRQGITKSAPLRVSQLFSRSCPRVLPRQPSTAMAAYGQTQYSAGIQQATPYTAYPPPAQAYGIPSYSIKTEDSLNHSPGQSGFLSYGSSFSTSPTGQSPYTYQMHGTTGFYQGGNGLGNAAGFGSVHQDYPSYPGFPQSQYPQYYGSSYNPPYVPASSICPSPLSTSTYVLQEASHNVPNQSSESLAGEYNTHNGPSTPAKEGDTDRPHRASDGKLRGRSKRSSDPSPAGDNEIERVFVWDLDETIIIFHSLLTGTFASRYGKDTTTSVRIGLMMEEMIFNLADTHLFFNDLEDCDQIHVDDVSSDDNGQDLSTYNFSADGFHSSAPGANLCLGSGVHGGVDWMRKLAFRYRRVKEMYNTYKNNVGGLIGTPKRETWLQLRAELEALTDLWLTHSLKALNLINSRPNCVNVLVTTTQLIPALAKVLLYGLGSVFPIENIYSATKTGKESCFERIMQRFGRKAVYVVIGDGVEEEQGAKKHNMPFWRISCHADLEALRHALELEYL
Target sequence (Q15475 whole entry, looked up): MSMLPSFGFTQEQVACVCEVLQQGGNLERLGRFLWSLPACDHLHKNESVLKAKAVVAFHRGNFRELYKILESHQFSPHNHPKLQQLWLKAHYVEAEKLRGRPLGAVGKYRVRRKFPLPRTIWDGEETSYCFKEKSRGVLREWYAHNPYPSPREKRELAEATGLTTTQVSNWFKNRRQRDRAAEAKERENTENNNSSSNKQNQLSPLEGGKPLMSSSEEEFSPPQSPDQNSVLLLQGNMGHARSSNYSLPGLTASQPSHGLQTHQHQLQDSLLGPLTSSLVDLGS
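AlphaScreen with GST-Six1 and His-Eya2 (5X mix: 250 nM and 500 nM), glutathione donor and nickel acceptor beads; buffer 50 mM Tris pH 8.0, 300 mM NaCl, 1 mM TCEP; 1 h at 37 C in the dark.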
D2 PAM – Beta-Arrestin HTS for Positive Allosteric Modulators of the Human D2 Dopamine Receptor: Potentiators. D(2) dopamine receptor (Homo sapiens), P14416. DiscoveRx D2 beta-arrestin cells, luminescence, 90 min; 100% = 57 uM dopamine signal. potentiation, % (test concentration not listed). 360,000 tested, 0.23% active; active = potentiation of 50% or more; inconclusive = 30% to 50%; inactive = 30% or less;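 note: compound concentration not given in the record; tested on top of an EC20 dose of dopamine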
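PathHunter D2 cells, attached overnight at 37 deg C, received compound in DMSO plus dopamine at EC20 (50 nM final) for 90 min at 37 deg C. Beta-arrestin recruitment was read as luminescence after 1 h with detection reagent at ambient temperature.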
The depositor's hits bear a star; ? = inconclusive; . = not tested or not shown; [ ] = dose if it differs, or a comment.

structure	CtBP-E1A inh	D2 agonist	TRPML1 agonist	PINK1 modulator	Six1-Eya2 blk	D2 PAM
CCn1c(SCC(=O)c2cccs2)nnc1-c1ccco1	2	-4.9	15	-4.3%	17	-22
Cc1cccc(N2CCN(Cc3cn(C)nc3-c3ccccc3F)CC2)n1	-3	?	-0.5	-0.3%	-9	-7
O=C(COc1ccccc1Cl)NCc1nc(-c2ccccc2)no1	2	-4.1	0.3	0.6%	6	-13
COc1ccc(N(C)S(=O)(=O)c2ccc3c(c2)NC(=O)CO3)c(OC)c1	4	2.5	-1.4	-0.9%	2	19
Cc1cc(C(=O)N/N=C2\CCCc3ccccc32)c(C)o1	1	-4.7	0.3	3.1%	-12	-3
Cc1ccc(S(=O)(=O)NC(C)C(=O)NC2CC2)cc1 (configuration not stated)	3	4.3	-0.3	2.7%	12	-1
COc1cc(OC)cc(C(=O)NCC(=O)OCC(=O)N2c3ccccc3NC(=O)C2(C)C)c1	-10	-3.9	0.6	2.1%	-7	-6
Cc1nn(CC(=O)NC2CCC(C)CC2)c(=O)c(C#N)c1C (configuration not stated)	-2	0.7	1.0	-2.7%	6	-4
CCN1CCN(CC(=O)NC2CCCC2)C(=O)C1=O	2	-1.3	-0.3	2.1%	3	-7
COc1ccc(-n2nnnc2-c2ccccc2)cc1	-1	1.2	0.0	2.9%[38.3 µM]	5	8
COc1ccc(O)c(/C=C2/SC(=S)N(Cc3ccccc3)C2=O)c1	-3	1.5	.	0.1%	-20	-3
CC(=O)Nc1ccc(S(=O)(=O)N2CCN(c3ccc([N+](=O)[O-])c(NCCN4CCOCC4)c3)CC2)cc1	-10	-2.4	0.1	2.6%	-20	-18
Cc1cccn2c(=O)c(C=Nc3ccccc3)c(NCc3ccco3)nc12	37	-1.4	1.5	.	9	-13
C=CCOC(=O)C1=C(C)NC2(O)c3ccccc3C(=O)C12O (configuration not stated)	-4	-3.4	-0.7	4.3%	-2	-19
O[C@H]1c2ccccc2[C@H](Cc2cncs2)[C@@H]1Br	0	2.0	-1.2	0.2%	12	-5
COc1ccc(S(=O)(=O)Nc2ccc3c(c2)C(=O)N([C@H](C)CO)C[C@H](C)[C@@H](CN(C)C(=O)Nc2ccc(C(F)(F)F)cc2)O3)cc1	0	-1.4	-0.5	0.4%	3	-2
CN(CC(=O)Nc1ccccc1C(F)(F)F)C(=O)CSc1nnc(N)s1	0	-0.3	-0.4	2.4%	6	0
CC(C)(C)Nc1nc(C(N)=O)nc(N2CCOCC2)n1	-1	-1.8	-0.6	-4.1%	-2	-13
CS(=O)(=O)N(CCc1ccccc1)CC(=O)NCc1cccnc1	7	4.3	0.5	-0.3%	14	5
COc1cc(C(=O)N=c2sc3c(C)ccc(OC)c3n2C)cc(OC)c1OC	7	3.7	0.4	7.9%	7	4
Cc1nn(S(=O)(=O)N2CCOCC2)c(C)c1Br	9	-0.1	1.4	-0.5%	3	0
Cc1ccc(S(=O)(=O)N(C)/N=C/c2ccc(C(=O)O)cc2)cc1	.	-4.5	-0.6	1.6%	-2	2
CCCCCN(C(=O)CCC(=O)OCC(=O)N(C)Cc1ccc(C)cc1)c1c(N)n(CCCC)c(=O)[nH]c1=O	6	-4.3	2.2	-0.8%	-2	-9
N=C1C(c2nc3ccccc3[nH]2)=C(O)CN1NC(=O)c1c[nH]c2ccccc12	.	-0.1	-0.1	1.8%	0	-4
O=C(NCC1OCCCN1S(=O)(=O)c1cc(F)ccc1F)C(=O)NC1CCCC1 (configuration not stated)	-8	1.7	0.8	?	0	11
CCC(C)C(=O)Nc1cc([N+](=O)[O-])ccc1Cl (configuration not stated)	0	-1.4	1.1	0.2%	24	-7
CCCCn1c(=O)[nH]c(=O)c2c1nc(-c1ccccc1F)n2Cc1ccccc1OC	-23	-2.8	3.4	-2.4%	0	-6
Cc1ccc(-c2noc(C3CCCN(S(=O)(=O)c4ccc(S(=O)(=O)N(C)C)cc4)C3)n2)o1 (configuration not stated)	6	0.8	1.9	9.3%[38.3 µM]	2	-6
CN1CCN(C(=O)c2ccc(CN3CCOCC3)cc2)CC1	5	0.8	0.5	1.1%	6	6
Cc1cc(S(=O)(=O)Nc2ncnc3sccc23)ccc1F	-2	1.1	-0.1	5.5%	-12	-3

More results
Screens in order – CtBP-E1A inh | D2 agonist | TRPML1 agonist | PINK1 modulator | Six1-Eya2 blk | D2 PAM
> O=S(=O)(c1ccc(Cl)cc1)c1ccccn1
    -7 | -3.4 | -0.4 | . | -1 | 4
> CCOC(=O)N1CCN(C(=O)c2ccccc2NC(=O)c2ccccc2Cl)CC1
    3 | -5.1 | 1.7 | -0.2% | 2 | 3
> O=C(O)C1CCCCC1C(=O)NCc1ccc(Cl)c(Cl)c1 (configuration not stated)
    . | -2.0 | -0.1 | -1.5% | 0 | -2
> Cc1ccc(S(=O)(=O)N2CCN(C(=O)CSC(=S)N3CCCC3)CC2)c(C)c1
    1 | -11 | 0.5 | 8.9% | -1 | -2
> CCn1nnnc1-c1ccc(OC)c(S(=O)(=O)Nc2ccc(S(N)(=O)=O)cc2)c1
    -5 | 2.3 | 1.5 | 1.2% | -5 | -11
> Cc1ccc(CSC2=NCCN2S(=O)(=O)c2ccc(C)cc2)cc1
    2 | -1.7 | 1.2 | 0.6% | 1 | -7
> CC1(C2CC2)NC(=O)N(CC(=O)NCC(=O)Nc2ccc(F)c(F)c2F)C1=O (configuration not stated)
    1 | -2.3 | 0.5 | 3.9% | 8 | -6
> Cc1ccc(C)n1NC(=O)c1cccc(Cl)c1
    7 | -1.9 | -0.3 | 2.4% | -2 | 6
> CCNC(=O)CN(c1ccccc1OC)S(=O)(=O)c1cccs1
    4 | -5.1 | 0.1 | -1.0% | 5 | -6
> COc1cc(NC(=S)NN2CCN(C)CC2)cc(OC)c1
    0 | -3.8 | 0.2 | 0.4% | 0 | -14
> Cc1coc2cc3oc(=O)c(CCC(=O)N[C@@H](CCCNC(N)=O)C(=O)O)c(C)c3cc12
    . | -1.9 | 0.4 | -0.4% | 0 | -4
> CCCc1ccc(-c2ccc(/C=C/C(=O)O)cc2)nc1
    9 | 0.0 | 0.0 | 3.5% | 6 | -14
> CC12CCC(C(S(=O)(=O)Nc3ccccc3)C1=O)C2(C)C (configuration not stated)
    8 | 3.2 | 1.9 | 3.1% | 2 | -3
> COc1ccc(-c2cc(C(F)(F)F)nc(S(=O)(=O)CCC(=O)N3CCOCC3)n2)cc1
    -5 | -3.9 | -0.3 | 0.3% | 3 | -3
> CCC(=O)NC(NC(=O)CC)C(Cl)Cl
    4 | -0.5 | 0.1 | -0.5% | 4 | -4
> Cc1ccc(S(=O)(=O)N2CCC(C(=O)N[C@@H](C)C(=O)NC3CCCCC3)CC2)cc1
    1 | -0.4 | 0.0 | 1.3% | 7 | -6
> CN(CC(=O)Nc1ccc(Cl)cc1)C1CCCCC1
    . | 0.3 | 0.1 | 5.1% | 0 | -9
> O=C(Oc1ccc([N+](=O)[O-])cc1)C1CC(=O)N(c2ccc3c(c2)OCCO3)C1 (configuration not stated)
    -11 | -9.5 | -0.1 | -3.0% | -1 | -1
> CCN1CCCC1CNS(=O)(=O)c1ccc(F)c(Cl)c1 (configuration not stated)
    -3 | -4.3 | 1.2 | -0.8% | 11 | -8
> CC1=C(C(=O)Nc2cc(C(=O)NCc3ccccc3)ccc2C)SCCO1
    -17 | -3.9 | 0.2 | 0.6% | -3 | -9
> Nc1cccc2c1C(=O)N(C(=O)c1ccc(S(=O)(=O)N3CCCCCC3)cc1)C2=O
    -3 | -5.3 | 0.6 | -0.3% | 1 | -10
> COc1ccc(CCN2C(=O)c3[nH]nc(-c4ccccc4O)c3C2c2ccccc2)cc1OC (configuration not stated)
    -7 | 12 | 1.1 | 20% | -4 | 21
> Cc1cc(C)c2c(CC(=O)NNC(=O)c3ccccc3)coc2c1
    5 | 4.3 | 0.7 | -0.3% | 0 | -4
> CC(=O)Nc1ccc(NC(=O)COC(=O)Cc2cccs2)cc1
    -3 | -0.1 | -0.2 | -0.7% | 5 | 1
> COCCCNC(=O)c1ccc([N+](=O)[O-])cc1
    7 | 8.0 | -0.6 | 0.3% | -1 | -3
> O=C1C=C(Nc2cccc(O)c2)CC(c2ccco2)C1 (configuration not stated)
    -3 | 2.8 | -0.7 | -0.9% | -1 | -1
> CC(C)N1CCC(=O)NC1=O
    3 | 0.6 | -0.2 | -1.3% | 12 | -6
> Cc1ccc2c(c1)NC(=O)[C@@]1(C)[C@@H](c3ccccc3)[C@H]3COc4ccc(Cl)cc4[C@@H]3N1C2=O
    -2 | -2.6 | 0.0 | 2.0% | -15 | -4
> CCc1nnc(NS(=O)(=O)c2ccc(NC(=S)Nc3ccc(F)cc3)cc2)s1
    4 | -0.1 | -0.2 | 5.2% | -4 | 12
> O=C1N(Cc2ccc(F)cc2Cl)c2ccccc2C12OCCCO2
    28 | -0.1 | 3.5 | 12% | 24 | -3
> CCOC(=O)[C@]12CCC=C1N(Cc1ccco1)C(=O)[C@H](CC(=O)NCC13CC4CC(CC(C4)C1)C3)C2
    2 | . | -0.6 | 2.6% | -12 | .
> O=S(=O)(NCCNc1nccc(C(F)(F)F)n1)c1ccccc1
    8 | -3.3 | 1.0 | -0.9% | -5 | -9
> Cc1noc(C)c1NC(=O)N(C)C[C@H]1Oc2ccc(NC(=O)Nc3ccccc3)cc2C(=O)N([C@H](C)CO)C[C@@H]1C
    5 | 0.7 | -0.4 | -0.2% | 7 | .

Full records, looked up by structure.
`CCCCn1c(=O)[nH]c(=O)c2c1nc(-c1ccccc1F)n2Cc1ccccc1OC` in the list: CtBP-E1A inh = -23; D2 agonist = -2.8; TRPML1 agonist = 3.4; PINK1 modulator = -2.4%; Six1-Eya2 blk = 0; D2 PAM = -6
`CN1CCN(C(=O)c2ccc(CN3CCOCC3)cc2)CC1` in the list: CtBP-E1A inh = 5; D2 agonist = 0.8; TRPML1 agonist = 0.5; PINK1 modulator = 1.1%; Six1-Eya2 blk = 6; D2 PAM = 6

Compounds listed so far that have bromine:
Screens in order – CtBP-E1A inh | D2 agonist | TRPML1 agonist | PINK1 modulator | Six1-Eya2 blk | D2 PAM
> O[C@H]1c2ccccc2[C@H](Cc2cncs2)[C@@H]1Br
    0 | 2.0 | -1.2 | 0.2% | 12 | -5
> Cc1nn(S(=O)(=O)N2CCOCC2)c(C)c1Br
    9 | -0.1 | 1.4 | -0.5% | 3 | 0
